Bioassay records: PubChem BioAssay, National Center for Advancing Translational Sciences (NCATS)
Sfp PPTase inh: Sfp phosphopantetheinyl transferase inhibition. Q9F4F7. Biochemical Sfp PPTase activity, qHTS. Potency, µM, without a hit: max response, negative = inhibition, actives largely listed as inhibitors. 310,000 compounds, 3.5% hits. AID 1490; active means well fitted inhibition curve with a large enough effect; inconclusive means small, poorly fitted or top-dose-only effect, or another doubt; inactive means no such curve, though single readings can be large or run the other way;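 further: the enzyme is Sfp with the accession as filed and its product quenches rhodamine fluorescence; potency means the concentration at half of the fitted maximal effect; 0% = enzyme reaction without inhibitor and -100% = no enzyme wells; top concentration of the series not given in the record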
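With Hepes-Na pH 7.6 buffer containing 10 mM MgCl2, Sfp (15 nM) modified BHQ-2-YbbR (12.5 uM) using rhodamine-CoA (5 uM). Two reads 30 minutes apart at 525/598 nm yielded each well's rate.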
TRPML1 inh: blocks the human TRPML1 channel. Q9GZU1. TRPML1-inducible cells, Ca2+ dye fluorescence, FDSS; active compounds read low; inhibition of EC80 agonist-evoked calcium signal. activity change, negative = inhibition, % (concentration not given with the values). 390,000 compounds, 0.02% hits; in the data active means activity change below about -50%; inconclusive means about -30% to -50%; inactive means above about -30%;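 further: stimulus is agonist 54-4 at its EC80 concentration; on the % scale 0 is the no-effect control and ±100 the full control effect; the text of the record puts the active cut at -80%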
Target sequence (Q9GZU1 whole entry, looked up): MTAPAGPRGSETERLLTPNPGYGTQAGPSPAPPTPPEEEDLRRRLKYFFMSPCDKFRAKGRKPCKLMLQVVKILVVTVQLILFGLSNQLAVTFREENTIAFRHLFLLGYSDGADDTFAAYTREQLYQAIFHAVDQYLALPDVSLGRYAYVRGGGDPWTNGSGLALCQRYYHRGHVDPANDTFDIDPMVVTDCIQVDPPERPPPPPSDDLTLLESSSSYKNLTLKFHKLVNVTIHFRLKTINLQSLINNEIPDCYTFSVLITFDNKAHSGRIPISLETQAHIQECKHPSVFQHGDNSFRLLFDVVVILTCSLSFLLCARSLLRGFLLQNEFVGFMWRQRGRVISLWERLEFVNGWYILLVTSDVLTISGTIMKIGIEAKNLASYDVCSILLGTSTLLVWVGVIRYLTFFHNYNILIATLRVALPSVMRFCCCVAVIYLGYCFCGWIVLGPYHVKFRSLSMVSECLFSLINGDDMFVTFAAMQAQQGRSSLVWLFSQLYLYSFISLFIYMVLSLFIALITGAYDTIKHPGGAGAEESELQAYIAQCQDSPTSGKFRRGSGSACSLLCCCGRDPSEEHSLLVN
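Calcium fluorescence in TRPML1-DL cells induced overnight with Tet: a 110 s read after compound pin addition, then a 110 s antagonist read after challenge with 54-4 at 4 uM final (EC80).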
gsp agonist: activates gsp, the McCune-Albright syndrome mutation | gsp mutant cells, cAMP HTRF, 30 min; control for the full effect not named in the record | Potency, µM (doses to about 76.9 µM), inactives show at the top dose activation (cAMP increase), hits mostly activators | 340,000 compounds, 0.13% hits; active = well fitted activation curve with a large enough effect; inconclusive = small, poorly fitted or top-dose-only effect, or another doubt; inactive = no such curve, though single readings can be large or run the other way; cell line not stated here;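 further: phosphodiesterase inhibitor Ro 20-1724 added with compounds to block cAMP breakdown; potency means the concentration at half of the fitted maximal effect; nearly all actives have a fitted effect of over 60% in size; about a fifth of the inactives were tested at one dose only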
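Cells stably selected in G418 were plated at 2000/well, grown 16-24 hr, then given compounds in DMSO with the PDE inhibitor […] (300 uM solution added) for 30 min at 37C; cAMP was read by HTRF.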
Menin-MLL FL inh: inhibitors of human menin-MLL interaction, wild-type MLL peptide. AID 1766. 290,000 tested, under 10 active. FP activity change, % at 61.4 µM. Fluorescence polarization, fluorescein-MLL peptide displacement from menin; inconclusive = falling polarisation curve, or a change in total fluorescence; inactive = total fluorescence flat and polarisation flat or rising; no compound was filed as active; the % refers to the polarisation; negative = inhibition;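 further: % of control where 0% means no effect; inhibitors lower the polarisation; unlabelled MLL peptide was the positive control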
ClpP mod: qHTS Assay for Activators of ClpP. ATP-dependent Clp protease proteolytic subunit (Bacillus subtilis (strain 168)), P80244. purified B. subtilis ClpP, FRET peptide cleavage, 20 min. Potency, µM (top dose mostly 57.5 µM), for the others: at the highest dose activity change, negative = active. 340,000 compounds, 1.9% hits. AID 651965, 2013; active = well fitted falling curve with a large enough effect; inconclusive = small, poorly fitted or top-dose-only effect; inactive = no such curve, though single readings can be large or run the other way; further: potency means the concentration at half of the fitted maximal effect; the source files actives as falling curves though it sought activators and does not explain the sign; nearly all actives have a fitted effect of over 65% in size; many hits overshoot -100%
Target sequence (P80244 whole entry, looked up): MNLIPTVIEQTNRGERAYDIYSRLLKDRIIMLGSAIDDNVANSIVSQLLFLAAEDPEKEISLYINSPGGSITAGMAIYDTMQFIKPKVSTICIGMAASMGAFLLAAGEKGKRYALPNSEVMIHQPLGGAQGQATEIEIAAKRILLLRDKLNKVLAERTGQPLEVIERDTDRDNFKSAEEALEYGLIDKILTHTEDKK
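FRET quenching reversal measured ClpP activation: 10 microg/mL B. subtilis ClpP at pH 8 with the FRET-FV decapeptide, read at 430 nm after 320 nm excitation. The 20-min minus 0-min signal was scaled between DMSO/no-enzyme wells and ADEP (5.8 microM final).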
gsp antag: antagonists of gsp mutant (McCune-Albright syndrome); 340,000 compounds, 0.4% hits; gsp-mutant cells, cAMP HTRF, 30 min; control for the full effect not named in the record; Potency, µM (series often up to 76.9 µM), for the others: top-dose activity change, negative = inhibition, usual class: inhibitors; AID 624288; active = falling curve of any shape with a large fitted effect; inconclusive = falling curve, mostly with a smaller effect; inactive = flat or rising curve; cell line not stated here;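 further: intracellular cAMP measured with PDE inhibitor Ro 20-1724 present during compound exposure; potency means the concentration at half of the fitted maximal effect; on the % scale 0 is the no-effect control and ±100 the full control effect; nearly all actives have a fitted effect of over 65% in size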
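HTRF cAMP read-out (cAMP-d2 plus anti-cAMP antibody-K in lysis buffer, 30 min RT). Before lysis, cells are exposed to compounds with […] for 30 min at 37C in DPBS containing Ca/Mg, BSA and Tween 20.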
TRPV1 PAM: potentiators of human vanilloid receptor 1 (TRPV1). Q8NER1. TRPV1-expressing cells, Fluo-8 calcium influx, capsaicin EC20 potentiation; host cell line not named in the record; control for the full effect not named in the record. potentiation, % at 8.33 µM. 320,000 compounds, 0.02% hits; active means potentiation above 80%; inconclusive means 30% to 80%; inactive means below 30%; further: 0% is about no effect
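TRPV1-expressing cells were cultured overnight at 35.5C and loaded with Fluo-8 calcium dye for 40 to 90 min at room temperature. After a 10 s baseline, compound was added and calcium influx was read kinetically for 3 min (ex 480/em 520 nm).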
The depositor's hits bear a star; ? = inconclusive; · = not tested or not shown; [ ] = dose if it differs, or a comment.

smiles,Sfp PPTase inh,TRPML1 inh,gsp agonist,Menin-MLL FL inh,ClpP mod,gsp antag,TRPV1 PAM
COC(=O)c1ccc(C(=O)OC)c(NC(=O)COC(=O)C2CCC(C(C)(C)C)CC2)c1 (stereo not given),6.7%,80.1,-26.0%,1.1,28.2µM*,-17.3%,-1.6
Cc1ccccc1NC(=O)CN1C(=O)C2C3CC(C(Br)C3Br)C2C1=O (stereo not given),56.2µM*,9.3,7.5%[15.4 µM],6.8,0.9%,-1.4%,-0.7
CCN(C(=O)CSc1n[nH]c(-c2ccc(OC)cc2)n1)c1c(N)n(Cc2ccccc2)c(=O)[nH]c1=O,·,-0.3,19.0%,·,-3.0%,7.5%,·
CC(=O)NC(CC(=O)Nc1ccc(S(=O)(=O)NC2=NCCCCC2)cc1)c1ccccc1 (stereo not given),·,-9.8,-20.3%,·,-1.2%,7.8%,2.2
CCn1c(CNc2ccccc2Cl)nnc1SCC(=O)OC1CCCCC1,-4.1%,9.8,-5.4%,-0.9,-1.3%,0.3%,-5.9
COC(=O)c1c(NC(=O)C2c3ccccc3Oc3ccccc32)sc(C)c1C,-5.3%,-6.9,-17.4%,4.8,?,-3.8%,-2.1
CCOc1cc(Cl)c(NC(=O)c2ccco2)cc1OCC,-2.8%,-2.3,3.2%[15.4 µM],2.4,-17.4%,4.6%,-31.0
O=C(Nc1ccc(F)cc1)Nc1ccccc1F,17.0%,5.6,-14.2%,0.1,·,-3.1%,-1.5
CCOC(=O)CSC1=C(C#N)C(c2ccccc2)C(C(C)=O)=C(C)N1 (stereo not given),79.4µM*,-6.8,1.3%,0.0,-3.0%,?,-10.1
COc1ccc(NC(=S)Nc2ccc(C)c(Cl)c2)cc1OC,-24.5%,-7.7,6.9%,-0.6,0.8%,6.8%,1.9
O=C(Cn1cnc2c(cnn2-c2ccccc2)c1=O)OCc1ccccc1,10.4%,5.6,1.8%,-1.7,-0.1%,-16.2%,21.1
O=C(O)c1ccccc1NC(=O)C1C2C=CC(C2)C1C(=O)O (stereo not given),20µM*,10.9,0.2%[15.4 µM],2.7,-2.4%,0.9%,-5.3
Cc1ccc(Cl)cc1N1CCN(Cc2nc3c(c(=O)[nH]c(=O)n3C)n2Cc2ccccc2F)CC1,-9.8%,-4.1,20.6%,1.6,-0.3%,-13.2%,9.0
O=[N+]([O-])c1ccccc1/C=N/n1c(-c2cccnc2)n[nH]c1=S,?,-2.6,-4.0%,·,-1.4%,0.8%,1.3
COc1ccc(NC(=O)Nc2ccc3[nH]ccc3c2)cc1,·,4.2,4.6%[15.4 µM],·,-0.1%,3.8%,·
COCCNC(=O)CNC(=S)N(Cc1ccccc1)Cc1cccnc1,18.9%,16.3,6.6%[15.4 µM],0.4,3.3%,19.7%,11.4
CN(C)Cc1ccccc1CNC(=O)c1cccc(S(=O)(=O)Nc2ccc3c(c2)OCO3)c1,·,0.2,-69.2%[inhibitor],·,-5.1%,·,·
COc1ccc(/C(C)=N\Nc2nc(-c3ccccc3)cc(=O)[nH]2)cc1,-4.0%,2.8,7.4%,1.2,137.4%,-9.2%,-19.8
COc1cccc(/C=C2\CCCCC2=O)c1,-2.6%,4.2,1.0%[15.4 µM],0.0,·,4.1%,10.2
O=C(NCCC(=O)N1CCc2ccccc21)c1ccccc1Cl,7.6%,5.9,1.4%[15.4 µM],1.7,·,-0.7%,7.3
CSCCC(NC(=O)OC(C)(C)C)C(=O)NC(C(=O)NC(CC(C)C)C(N)=O)C(C)C (stereo not given),-4.5%,10.1,-3.8%,1.5,0.4%,-2.4%,25.4
O=c1oc2ccccc2c(CNc2ccccc2)c1[N+](=O)[O-],5.1%,35.3,27.8%,-4.7,-0.8%,-0.1%,-10.1
Cc1nn(-c2ccccc2)c(C)c1/C=C/C(=O)OCC(=O)Nc1ncc(C(F)(F)F)cc1Cl,13.1%,2.8,-44.2%[inhibitor],4.0,-3.1%,-1.5%,0.7
CSc1nc(SCC(=O)NCC2CCCO2)c2c3c(sc2n1)CN(C)CC3 (stereo not given),13.5%,-3.1,?,11.3,·,-3.9%,?
CNc1nc(SC)nc2ccsc12,-2.5%,6.6,1.7%,-1.8,-1.1%,4.2%,-10.0
C=CCn1c(O)c(N=NC(=O)C(O)c2ccccc2)c2ccccc21 (stereo not given),11.2%,·,-2.7%,-1.1,-0.1%,4.7%,-0.1
Cc1cc(N2C(=O)C(=O)/C(=C(/O)c3ccc(Cl)cc3)C2c2cccc(Br)c2)no1 (stereo not given),6.7%,-2.1,?,2.8,1.6%,-14.8%,3.3
CCc1noc(C)c1C(=O)N1CCCC(C(=O)c2cc(F)ccc2OC)C1 (stereo not given),16.6%,9.2,-14.4%,0.3,-6.8%,-3.6%,-0.4
CC1=CCC2C(=O)N(c3cccc(C(=O)NCc4ccccc4)c3)C(=O)C2C1 (stereo not given),29.7%,-1.1,-20.1%,4.9,·,4.6%,5.0
O=C(CN1CCN(C(=O)C2CCN(C(=O)/C=C/c3ccccc3)CC2)CC1)Nc1ccc(F)cc1,·,14.9,24.4%,·,-2.9%,-1.3%,·
COc1cccc2cc(C(C)N(CCCN3CCOCC3)C(=O)Nc3ccccc3)oc12 (stereo not given),22.2%,34.6,1.1%,-1.5,-3.4%,-2.2%,-6.4
CCOC(=O)c1cn2nc(N3CCCC3)ccc2n1,0.4%,13.6,2.2%[15.4 µM],-6.3,0.3%,7.9%,?
Cc1ccc(OCC(O)CN2CCN(c3ccccn3)CC2)c(C)c1 (stereo not given),-2.7%,-2.5,1.9%[15.4 µM],3.4,·,-32.5%,-8.2
Cc1nc2ccccc2c2oc(C(=O)N3CCN(C4CCCCC4)CC3)cc12,-1.1%,31.4,-34.3%[inhibitor],0.6,-2.4%,-2.1%,-18.4
COc1ccc2c(c1)CCCC21NC(=O)N(CC(=O)NC(=O)NCc2ccccc2)C1=O (stereo not given),4.0%,-20.3,8.9%[15.4 µM],0.8,·,5.9%,-3.8
CN(C)/C=C1\C=C(c2ccccc2)OC1=O,20µM*,-3.9,-7.9%,?,-1.0%,7.2%,·
CC(=O)c1c(C)[nH]c(C(=O)OCC(=O)NCc2cccs2)c1C,·,3.9,-19.5%,·,-1.0%,-20.6%,4.4
CCOc1ccc(OCC)c(NC(=O)C2COc3ccccc3O2)c1 (stereo not given),-3.8%,-3.9,5.5%,-0.2,-1.3%,-11.8%,-5.9
Nc1nccc(-c2ccc(-n3cccc3)cc2)n1,1.3%,-3.4,0.4%,3.8,-1.1%,2.9%,5.8
CCCN(CCC)C(=O)c1ccc2c(=O)n(Cc3ccco3)c(=S)[nH]c2c1,12.6µM*,11.7,-8.4%,17.2,0.1%,-31.6%,4.0
CCCn1c(SCC(=O)N(C2CCCCC2)C2CCS(=O)(=O)C2)n[nH]c1=O (stereo not given),·,0.2,0.3%,·,-0.6%,12.6%,11.1
CCOc1ccccc1NC(=O)c1ccoc1C,3.7%,-10.3,4.8%,-0.4,-0.2%,-7.2%,2.4
COc1ccc(CNC(=O)Cn2nnc3ccccc3c2=O)cc1,10.5%,-7.8,6.5%,1.7,-1.7%,11.5%,2.2
CSc1ccccc1NC(=O)CN(C)Cc1cccc(Cl)c1,31.6µM*,53.5,-0.6%[15.4 µM],2.8,·,-2.5%,-8.1
COc1ccc(S(=O)(=O)N2CCOCC2)cc1NC(=O)CC1CCCC1,·,-20.6,-4.3%,·,-1.0%,9.3%,-1.2
CCOC(=O)C1C(=O)NC(SC)=C(C#N)C1c1ccccc1F (stereo not given),18.1%,4.3,-0.5%,0.1,-1.3%,12.5%,4.6
CN1CCN(c2nc3ccccn3c(=O)c2C=O)CC1,-2.6%,5.0,13.3%[15.4 µM],-13.4,-2.2%,8.5%,-11.0
CCOc1ccc2nc(NC(=O)CSC3=NCCS3)sc2c1,0.6%,-7.2,-40.1%[inhibitor],1.0,-1.1%,-11.9%,-9.3
Cn1cnnc1Sc1ccc(C(=O)OCC(=O)NCC(F)(F)F)cc1[N+](=O)[O-],9.9%,24.0,-2.0%[15.4 µM],0.9,·,0.0%,·
COCCn1c(-c2ccc(Cl)cc2Cl)nc2c(c(=O)c3ccccc3n2C)c1=O,20.0%,15.0,-122.7%[inhibitor],5.1,14.1µM*,45.9%[activator],-2.6
O=C(NCc1ccc(F)cc1)C1CCC(=O)N1CCc1ccccc1 (stereo not given),1.1%,9.1,?,5.3,1.6%,-0.7%,·
Cc1cccc(OCCCCCn2ccnc2)c1,4.4%,11.9,2.1%,1.6,0.4%,6.8%,·
Cc1nc(NCC2CCCO2)c2oc3ccccc3c2n1 (stereo not given),1.4%,25.6,15.1%,3.3,-24.5%,-17.6%,-10.1
Cc1ccc(S(=O)(=O)N2CCOCC2)cc1C(=O)OCC(=O)Nc1ccc2c(c1)OCO2,-6.3%,12.4,0.0%,-2.2,0.2%,-21.6%,10.7
CSc1ccccc1NC(=O)CSc1n[nH]c(N)n1,33.6%[activator],-2.1,-4.6%[15.4 µM],-5.8,·,17.1%,13.4
Cn1c(=O)c2c(nc(CN3CCC(C(N)=O)CC3)n2Cc2ccccc2Cl)n(C)c1=O,17.8%,-3.8,?,-1.6,-1.6%,2.5%,15.4
Cc1cc(C)n(CC2CC(=O)N(c3ccc(C)c(Cl)c3)C2=O)n1 (stereo not given),8.4%,-18.9,-34.1%[inhibitor],2.7,-1.3%,-2.1%,-10.7
CCN=c1scc(C)n1/N=C/c1ccc(O)c(O)c1O,8.91µM*,10.0,-42.5%[inhibitor],4.8,-19.9%,-24.5%,0.5
O=C(O)C1CCCN1C(=O)OCC1c2ccccc2-c2ccccc21 (stereo not given),-6.3%,-1.7,-17.1%,1.9,-1.0%,-11.5%,-0.2

Rows are unselected, and some 4.9% of all compounds hit somewhere here.
